# From PubChem
# ALR H2O2 inh: blocks human ALR sulfhydryl oxidase activity | AID 485317 | P55789 | inhibition, % (concentration not given with the values) | purified ALR, DTT oxidation, H2O2 HRP-luminol luminescence | 290,000 tested, 3.8% active;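 active = mean and each replicate at 75% or more; inconclusive = only one of the two met; inactive = neither met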;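 note: stock transfer was 7.5 nL into about 7.5 µL; 0% = neutral wells and 100% = wells with inactivated enzyme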
# Beta2AR agonist: human beta-2 adrenergic receptor agonism by FAP. P07550. Am2.2-beta2AR cells, FAP receptor internalization, flow cytometry; reference of the scale not given here. response, % (concentration not given with the values). 340,000 tested, 0.43% active;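 active = response above a set limit, near 3 SD of response in nonfluorescent compounds, cut at about 42% in these data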;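 note: stock transfer was 100 nL into about 11 µL; a reference agonist was the positive control; negative values mostly stem from fluorescent compounds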
# LANA-H2B inh: blocks KSHV LANA binding to histone H2A/H2B; 320,000 tested, 0.6% active; inhibition, % (test concentration not listed); cell-free LANA-H2A/H2B peptide, fluorescence polarization; Q9QR71; in the data active = inhibition mostly above about 10%, no sharp cut-off; inactive = mostly below about 6.7%;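 note: stock transfer was 7.5 nL into about 10 µL; 0% = median of vehicle wells and 100% = median of positive control wells; one replicate is shown; the record names a cut of 25% in any replicate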
# Target sequence (Q9QR71 whole entry, looked up): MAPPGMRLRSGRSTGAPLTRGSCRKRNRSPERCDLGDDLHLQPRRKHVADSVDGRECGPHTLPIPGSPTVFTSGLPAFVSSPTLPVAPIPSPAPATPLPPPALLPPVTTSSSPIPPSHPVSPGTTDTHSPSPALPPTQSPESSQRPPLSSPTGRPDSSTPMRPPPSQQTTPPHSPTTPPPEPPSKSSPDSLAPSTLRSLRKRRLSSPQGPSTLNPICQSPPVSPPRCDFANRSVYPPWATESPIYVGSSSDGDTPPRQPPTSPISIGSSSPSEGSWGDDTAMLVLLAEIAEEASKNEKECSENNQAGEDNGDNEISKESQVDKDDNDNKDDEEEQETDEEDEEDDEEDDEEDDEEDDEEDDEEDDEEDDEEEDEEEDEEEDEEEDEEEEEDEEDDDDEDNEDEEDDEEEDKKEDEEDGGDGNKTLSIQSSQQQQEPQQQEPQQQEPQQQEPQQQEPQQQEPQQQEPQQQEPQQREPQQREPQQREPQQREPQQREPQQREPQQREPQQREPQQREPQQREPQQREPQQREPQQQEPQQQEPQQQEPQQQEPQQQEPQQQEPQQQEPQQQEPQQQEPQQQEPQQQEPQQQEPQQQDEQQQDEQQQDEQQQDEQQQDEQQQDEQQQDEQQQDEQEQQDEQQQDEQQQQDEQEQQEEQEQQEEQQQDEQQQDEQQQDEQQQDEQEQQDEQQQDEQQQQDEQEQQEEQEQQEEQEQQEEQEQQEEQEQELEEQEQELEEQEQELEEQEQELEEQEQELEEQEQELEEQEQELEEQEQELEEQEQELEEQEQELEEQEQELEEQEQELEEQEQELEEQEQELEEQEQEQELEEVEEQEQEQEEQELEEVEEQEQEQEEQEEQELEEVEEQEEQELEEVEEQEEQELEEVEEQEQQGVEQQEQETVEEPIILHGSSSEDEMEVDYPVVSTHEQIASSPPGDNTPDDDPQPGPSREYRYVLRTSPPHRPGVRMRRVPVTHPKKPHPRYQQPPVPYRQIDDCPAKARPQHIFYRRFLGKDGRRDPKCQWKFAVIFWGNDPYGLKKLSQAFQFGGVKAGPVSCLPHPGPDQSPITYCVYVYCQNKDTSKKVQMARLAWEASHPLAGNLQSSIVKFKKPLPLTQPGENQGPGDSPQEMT
# Calb FLC: C. albicans growth modulation with fluconazole; C. albicans CaCi-2 (fluconazole-resistant clinical isolate) + fluconazole, Alamar Blue growth, 48 h; AID 1979; 300,000 tested, 0.57% active; growth inhibition, % (no concentration beside the values);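 active = most replicates above 75%; inconclusive = exactly half above 75%; inactive = most below 75%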;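 note: all wells also contain fluconazole at 8 µg/ml as a sub-toxic cotreatment; 0% = median of DMSO wells and 100% = median of geldanamycin control wells; wells of about 8 µL received 7.5 nL stock; the first replicate is given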
# HNF4A DNA FP: change in binding of human HNF4 alpha to DNA; AID 1224865; P41235; 360,000 tested, 0.3% active; activity change, % at 10 µM; HNF4a-FITC DNA binding, fluorescence polarization, 1 h; in the data active = activity change above about 30%, passing the limit was not always enough;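 note: controls were the assay level and a saturating level of protein; the project sought stronger binding though the title names inhibitors; some compounds called inactive have numbers as strong as hits; positive values seem to mean higher polarization but the record does not say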
# Vif A3G: HIV-1 Vif–A3G interaction blockers – biochemical, TR-FRET, GST-Vif 1-94, biotin-A3G peptide, dose response retest, primary screen (AID 1117319); TR-FRET GST-Vif / biotin-A3G peptide binding; higher % means a stronger effect; test concentration not given here; strong numbers were not always called active; inhibition, %, or IC50 in µM where a hit was titrated; 260,000 tested, 0.57% active;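 active = above the screen mean plus three standard deviations and confirmed in dose response; inconclusive = results disagree or hit not tested in dose response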;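 note: Vif residues 1-94 fused to GST binding biotinylated APOBEC3G peptide 110-148; 0% = full assay without inhibitor and 100% = GST in place of GST-Vif; retest series ran down from 100 µM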
# RanGTP-Imp inh: inhibitors of RanGTP-importin-beta interaction, primary screen, biochemical, FRET, CFP-Ran, YFP-importin-beta, homogeneous. cell-free CFP-Ran/YFP-importin-beta FRET ratio. inhibition, % (concentration not given with the values). 300,000 tested, 1.1% active;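 active = most replicates above 15%; inconclusive = exactly half above 15%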;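 note: 0% = DMSO wells and 100% = Ran loaded with GDP instead of GTP; wells of about 40 µL received 100 nL stock; the first replicate is given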
# * marks the source's active call; other numbers are inactive results; ? = inconclusive; nt = not tested or not shown; & = joins results of further samples.
smiles	ALR H2O2 inh	Beta2AR agonist	LANA-H2B inh	Calb FLC	HNF4A DNA FP	Vif A3G	RanGTP-Imp inh
CN(C)C(=O)COn1c(SCC(=O)N(C)C)nc2ccccc2c1=O	-19	-6	0.9	37	-3.3	-2%	-2.0
COc1ccc(S(=O)(=O)N2CCN(C)CC2)cc1C(=O)Nc1ccccc1	-12	-18	-0.2	-3	-4.1	nt	5.0
Cc1cc(N2C(=O)C(O)=C(C(=O)c3cc4ccccc4o3)C2c2ccc([N+](=O)[O-])cc2)no1 (configuration not stated)	98*	12	3.3	0	-0.2	nt	-2.7
Cc1ccc(S(=O)(=O)N(CCCN2CCCC2=O)Cc2cc3c(C)ccc(C)c3[nH]c2=O)cc1	nt	-12	1.2	5	3.5	1%	4.1
CSc1ncccc1C(=O)OCC(=O)NC1CCC(C)CC1 (configuration not stated)	-5	7	-9.5	nt	2.6	6%	nt
CC(=O)[C@@H]1[C@@H](C(=O)c2ccccc2)[C@]2(C(=O)Nc3ccccc32)[C@H]2C=Cc3cc(F)ccc3N12	-6	-17	-5.1	-5	7.5	14%	1.0
CC(C(=O)OCC(=O)c1cccc([N+](=O)[O-])c1)N1C(=O)C2C3CCC(C3)C2C1=O (configuration not stated)	-12	-6	-0.8	0	3.0	30%	-2.2
COc1cccc(N2CCN(CC(=O)c3c(C)[nH]c4ccccc34)CC2)c1	33	-1	2.5	9	5.5	1%	-3.3
NNC(=O)CN1CCCc2ccccc21	44	1	-1.5	-20	0.2	nt	0.3
CCCN(CCC)S(=O)(=O)c1ccc(C(=O)N2CC3CCC(CC3)C2)cc1	-1	2	-4.7	-3	-1.2	-3%	0.8
COc1cccc(C(C(=O)NC(C)(C)C)N(Cc2ccc(F)cc2)C(=O)CCC(=O)Nc2cc(C)on2)c1OC (configuration not stated)	nt	-6	-3.2	-3	3.9	nt	-14
Cc1ccc(S(=O)(=O)N2CCN(C(=O)C(C)Cn3cncn3)CC2)cc1C (configuration not stated)	1	-5	-2.2	-1	0.2	4%	0.9
Cc1cccc(Nc2c([N+](=O)[O-])ccc3nonc23)c1C	nt	4	nt	-4	-1.0	-6%	-2.7
COc1ccc(NC(=O)c2ccccn2)cc1S(=O)(=O)N1CCOCC1	-1	-5	1.8	-1	-0.8	-9%	-0.4
O=C(CCn1ccc2cc(S(=O)(=O)N3CCCC3)ccc21)NCc1ccccc1F	-10	-3	1.1	-13	2.7	nt	2.1
Cc1ccc(NC(=O)c2cc(S(=O)(=O)N3CCOCC3)cn2C)cc1F	-12	10	1.1	14	1.8	nt	-3.1
COCC(O)CSc1c([N+](=O)[O-])nc(C)n1Cc1ccc(OC)c([N+](=O)[O-])c1 (configuration not stated)	0	-1	-1.5	-4	0.3	-8%	-1.3
Cn1c(=O)c2ccccc2n2c(CCl)nnc12	6	9	1.3	-5	5.9	14%	-1.1
Cc1cccc(N(Cc2ccccc2)C(=O)c2cc(S(=O)(=O)N3CCOCC3)ccc2F)c1	-9	3	1.8	-1	-1.3	-3%	-0.9
O=C(O)CCC(=NNC(=O)c1cccc(S(=O)(=O)N2CCCCC2)c1)c1ccccc1	5	-7	-5.8	nt	-2.5	nt	nt
CCCCCNC(=O)c1ccc2c(=O)n(CCOC)c(=O)[nH]c2c1	-17	5	-3.7	0	-2.6	0%	6.1
COc1ccc(OC)c(C2=Nn3c(nnc3C3CCCCC3)SC2)c1	-10	3	-1.1	-1	-0.1	-10%	-0.2
CCCN1CNC(=S)N(c2cccc(C)c2)C1	nt	1	3.0	5	-4.3	?	6.2
O=C(O)C1CCN(C(=O)CSc2nc3cc(Cl)ccc3c(=O)n2Cc2ccccc2)CC1	61	-3	-4.6	9	1.1	nt	4.7
O=[N+]([O-])c1cc(S(=O)(=O)N2CCCC2)ccc1NN=C1CCCCC1	-1	-6	-3.4	-2	-2.5	-11%	1.5
CCCCN(CC)CCCNC(=O)CC1Nc2ccccc2NC1=O (configuration not stated)	0	0	-2.6	4	-0.5	23%	3.6
CCc1ccc(S(=O)(=O)n2c(C)nc3ccccc32)cc1	-2	-4	-5.2	29	-0.6	-6%	0.4
CCCCc1n[nH]c2c1/C(=N/OCC)CC(C)(C)C2	4	13	-4.4	-1	-0.1	nt	2.3
O=C(COc1ccc2c3c(c(=O)oc2c1)CCC3)Nc1ccccn1	-3	61*	3.1	-3	-1.5	nt	0.2
O=C(CN1C(=O)CC(c2ccco2)Sc2ccccc21)Nc1ccccc1F (configuration not stated)	5	5	-1.2	9	4.2	28%	1.8
COC(=O)c1ccccc1NC(=O)COC(=O)[C@H](C)NC(N)=O	nt	-1	-0.3	4	-0.6	2%	0.5
COc1ccccc1CN(C)CC(=O)Nc1ccc(Cl)cc1F	-3	-5	5.3	-13	1.0	nt	1.0
O=C(N1CCOCC1)N1CCN(CC(O)COc2ccc3ccccc3c2)CC1 (configuration not stated)	-48	0	-4.7	-10	-0.3	16%	-0.7
Cc1nc(-c2cc(C#N)c(Sc3ccc(Cl)cc3Cl)nc2C)cs1	-5	5	-0.4	-6	5.0	nt	4.9
CC(CNC(=O)c1cccc(Br)c1)n1cncn1 (configuration not stated)	2	-4	3.1	-12	0.5	nt	4.1
O=C1CC(=O)N(Cc2ccco2)C(=S)N1	74	-4	-9.4	-5	-20	2.2µM*	?
Cc1ccc(NC(=S)N2CCN(c3ncccn3)CC2)c(C)c1	nt	-5	nt	26	-4.4	nt	-1.7
COc1ccccc1N1CCN(C(=O)C(=O)c2c[nH]c3ccccc23)CC1	4	0	5.3	14	-0.7	nt	0.1
COc1ccc(CC(=O)N(C)Cc2ccc(Cl)cc2)cc1S(=O)(=O)N1CCOCC1	-5	3	3.9	6	2.5	1%	5.3
Cc1cc(C(=O)Nc2ccc(Cl)cc2)on1	3	-6	2.4	-5	0.8	-5%	5.4
O=C(CN1CCOCC1)Nc1nc2ccc(F)cc2s1	-30	-7	0.5	?	3.7	2%	-0.2
COc1ccccc1C(=O)Nc1nc2ccccc2[nH]1	-1	-25	0.1	2	4.6	nt	0.6
Cc1nn(Cc2ccc(Cl)cc2Cl)c(C)c1NC(=O)NC12CC3CC(CC(C3)C1)C2	-9	-7	-2.2	18	2.4	71%	2.5
COc1cccc2cc(-c3nnc(SCC(=O)NCc4ccccc4)n3C)oc12	-4	6	1.9	-2	-1.2	-10%	-0.8
CCOc1cc(N2CCOCC2)c(OCC)cc1NC(=O)[C@H](C)N1C(=O)C2CC=CCC2C1=O (some centres not stated)	66	-2	2.3	-3	0.1	1%	-2.8
COc1cc(OC)cc(-c2cc3cc4c(cc3cn2)OCO4)c1	2	9	-0.6	nt	-2.0	nt	nt
COc1ccccc1-n1nnnc1SCC(=O)Nc1oc(C)c2c(C)n[nH]c(=O)c12	nt	-2	-2.7	2	0.9	-1%	-0.9
CCCCN(C(=N)N1CCCCC1)c1nc(C)c([N+](=O)[O-])c(=O)[nH]1	0	3	-1.4	-5	3.2	-16%	0.1
O=S(=O)(c1ccccc1)N1N=C(c2ccccc2)CC1c1ccccc1F (configuration not stated)	-3	-4	0.9	4	-1.1	2%	2.7
COc1ccc(CNC(=O)Cn2cnc3c(OCc4ccccc4)ncnc32)cc1	nt	-5	-1.2	nt	3.2	-3%	nt
COc1ccc(-c2cc3nc[nH]c(=O)c3s2)cc1	-1	-5	2.8	5	-2.8	-14%	2.1
O=C(COC(=O)c1ccc(F)cc1F)NC1CC1	11	-1	-7.8	-10	1.2	-10%	1.0
COc1ccc(-c2nn(-c3ccccc3)cc2/C=C2/SC(=S)N(CCCC(=O)O)C2=O)c(C)c1	3	13	4.0	25	-2.6	1%	1.0
CCN(CC)c1ccc(/C=C2\SC(=O)N(C(C)C)C2=O)o1	nt	-51	-6.9	-6	81	25%	1.1
C(=N\Nc1nc2ccccc2[nH]1)/C1CCCCC1	nt	6	-3.0	-17	2.0	?	-0.9
CCNC(=O)c1sc(=S)n(-c2ccc(C)cc2)c1N	25	-4	-1.1	-10	0.6	0%	1.4
N/C(=N\OC(=O)Cc1ccccc1)c1ccccc1Cl	-9	7	6.0	-21	2.6	-3%	-0.2
Cc1ccn2c(=O)nc(SCC(=O)Nc3ccc4c(c3)OCCO4)nc2c1	97*	-4	3.0	-9	-0.9	4%	7.2
Cn1c(=O)[nH]c(=O)c2c1nc(N1CCCCC1)n2CCOc1ccccc1	-1	-9	-0.6	-4	0.1	-2%	7.4
CCNCC(=O)N1c2ccccc2CCc2ccc(NC(=O)OC(C)C)cc21	-1	13	1.2	10	0.0	-2%	-1.9

# Carrying on:
smiles	ALR H2O2 inh	Beta2AR agonist	LANA-H2B inh	Calb FLC	HNF4A DNA FP	Vif A3G	RanGTP-Imp inh
COc1ccc(-c2[nH]ncc2CN2CCN(C(=O)c3cccs3)CC2)c(F)c1	-2	-10	-1.0	-10	0.8	nt	?
CCn1ccnc1CNC(=O)CC1C(=O)NCCN1Cc1ccc(OC)cc1OC (configuration not stated)	-7	-7	2.5	3	-0.5	nt	2.3
Cc1ccc(NS(=O)(=O)c2ccc(C(=O)N3CCCCCCC3)cc2)cc1	6	-3	-1.5	5	-2.7	nt	1.0
O=C(COC(=O)c1ccc(OC(F)(F)F)cc1)NCCN1C(=O)CSC1=O	-3	11	-4.1	nt	-2.5	-8%	nt
Cc1cccc(NS(=O)(=O)c2cc3c(cc2C)n(C)c(=O)c(=O)n3C)c1	-3	1	4.8	-4	-2.2	-2%	2.6
Cc1cc(Nc2ccc3c(c2)OCCO3)c2ccccc2n1	nt	-1	nt	0	-1.3	-3%	-1.3
CCCCC1=NN2C(=N)CC(=O)N=C2S1	15	-2	-3.3	6	5.2	6%	7.7
CN1CCN(C(=O)CNC(=O)c2cccs2)CC1	-29	0	1.8	nt	4.1	-9%	nt
Nc1nc(Nc2cccc(F)c2)nc(N2CCOCC2)c1[N+](=O)[O-]	-2	-3	-4.0	-3	-0.5	3%	5.2
CC(=O)Oc1ccc(-c2ccc(C(=O)OCC(=O)c3c(N)n(C)c(=O)n(C)c3=O)cc2)cc1	nt	1	4.1	nt	2.5	nt	nt
COc1ccc(/C=C(/NC(=O)/C=C/c2ccccc2)C(=O)O)cc1	4	-8	-3.5	-4	1.9	nt	1.9
O=C(c1ccc(S(=O)(=O)N2CCCC2)cc1)N1CCN(c2ccccc2)CC1	24	-3	4.0	8	2.8	nt	3.7
COc1cc(CNc2nc3ccccc3[nH]2)cc(OC)c1OC	75	0	1.2	10	4.3	-12%&-2%	-0.6
CCN(CC)S(=O)(=O)c1ccc(N2C(=O)CC2(/C=C/c2ccccc2)C(=O)NC2CCCC2)cc1 (configuration not stated)	0	0	4.7	-7	-0.1	?	0.5
Clc1ccc(CSc2nnc(Cn3cnc4ccccc43)o2)cc1	nt	0	2.8	7	2.6	-2%	3.3
CCOC(=O)c1cc(-c2ccccc2)sc1NC(=O)c1ccc(OC)c(OC)c1	-3	4	-3.3	9	3.1	14%	-3.4
Cc1cc(NC(=O)CCC(=O)N(CC(=O)NC2CCCC2)c2ccc(Cl)cc2)no1	-14	-2	4.0	-4	-0.1	nt	-1.4
COCCCNC(=O)c1cc(C(=O)c2c(-c3c(Cl)cccc3Cl)noc2C)c[nH]1	nt	-1	0.6	-7	2.1	-91%	2.5
O=C(CCC1CCCCC1)NCCS(=O)(=O)N1CCN(c2ccccc2F)CC1	-15	-11	-1.1	-8	-0.7	-5%	0.9
O=C(N/N=C/c1ccccc1Cl)c1ccc(F)cc1	-7	2	0.0	-12	2.3	-5%	0.1
Cc1ccc(S(=O)(=O)N(C)C)cc1NC(=S)NC12CC3CC(CC(C3)C1)C2	nt	-3	nt	24	0.9	3%	-1.6
